# RGS16-Gao HTS: RGS16-Galphao interaction regulator (human); bead-based flow cytometry RGS16-Galphao binding, fluorescence; actives lie on both sides; binding response (% of control), % at 10 µM; actives 0.38% (n = 220,000);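 active = below 25% or above 175%, edge rows of some plates excepted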;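 also: Galphao activated by GDP with aluminum fluoride before binding; 100% = wells without compound and 0% = beads without RGS; some results beyond the cut were filed as inactive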
# PKD1 kinase inh: blocks activity of human protein kinase D1; AID 797; actives 0.056% (n = 200,000); PKD1 kinase fluorescence polarization assay; inhibition, %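 (about 10 µM by stock and volumes)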; Q15139;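 active = inhibition of 50% or more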;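 also: controls were vehicle for no effect and a reference inhibitor for full effect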
# Target sequence (Q15139 whole entry, looked up): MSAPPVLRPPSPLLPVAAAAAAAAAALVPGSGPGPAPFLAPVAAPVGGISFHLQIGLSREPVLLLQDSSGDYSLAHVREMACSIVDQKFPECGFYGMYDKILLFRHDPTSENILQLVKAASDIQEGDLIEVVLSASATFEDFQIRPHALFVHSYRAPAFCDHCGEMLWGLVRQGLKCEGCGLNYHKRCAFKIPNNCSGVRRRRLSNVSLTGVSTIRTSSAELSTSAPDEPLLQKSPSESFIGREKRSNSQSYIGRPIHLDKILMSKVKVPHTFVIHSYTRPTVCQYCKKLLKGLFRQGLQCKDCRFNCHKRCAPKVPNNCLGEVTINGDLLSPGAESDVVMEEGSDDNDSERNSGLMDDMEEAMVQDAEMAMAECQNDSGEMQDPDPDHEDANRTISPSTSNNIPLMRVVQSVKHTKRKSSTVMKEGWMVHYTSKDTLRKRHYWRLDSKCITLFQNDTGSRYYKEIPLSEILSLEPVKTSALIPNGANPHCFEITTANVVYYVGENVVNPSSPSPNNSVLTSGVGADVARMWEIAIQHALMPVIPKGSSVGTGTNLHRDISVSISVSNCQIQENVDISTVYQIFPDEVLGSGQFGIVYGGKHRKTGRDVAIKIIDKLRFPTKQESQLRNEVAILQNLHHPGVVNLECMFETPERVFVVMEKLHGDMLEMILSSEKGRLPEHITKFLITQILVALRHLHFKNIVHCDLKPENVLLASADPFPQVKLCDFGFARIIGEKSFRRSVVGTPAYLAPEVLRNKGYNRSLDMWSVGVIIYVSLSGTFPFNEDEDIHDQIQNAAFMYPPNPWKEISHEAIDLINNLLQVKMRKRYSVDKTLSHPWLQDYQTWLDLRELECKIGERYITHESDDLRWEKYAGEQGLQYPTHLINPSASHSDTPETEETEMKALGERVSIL
# GALR2 ag: GALR2 (human) receptor agonism; O43603; GALR2-expressing cells, agonist activation read-out; activation, %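 (tested at 5 µM)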; actives 0.48% (n = 140,000);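 active = above mean plus 3 SD of all compounds, about 5% in these data, not always enough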;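 also: 0% = vehicle buffer wells and 100% = reference agonist at full effect; tested in CHO reporter cells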
# Insulin prom inh: TRM-6 insulin promoter activity inhibition. TRM-6 cells (human fetal islet line), insulin promoter-eGFP reporter, imaging; reporter expression induced with tamoxifen. inhibition, % at 2 µM. actives 0.9% (n = 130,000);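 active = inhibition above the mean plus 3 SD, with well images judged a real hit on visual review, cut at about 60% in these data, passing the limit was not always enough; inconclusive = inhibition over the cutoff but images rejected on review; inactive = inhibition not above the cutoff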
# HSV augment: HSV replication enhancement; HSV replication augmentation in cells, fold increase; AID 1956; actives 0.005% (n = 220,000); maximum fold increase;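 active = peak rise of 1.5-fold or more in the series; inconclusive = self-fluorescent or not available for retest; tested in PC3 cells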;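 also: first round at 10 µM; read as green reporter fluorescence; hits show the peak of a series up to 25 µM; 1 = signal of infected wells without compound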
# Insulin prom inh cell count: further read-out of Insulin prom inh, marked with its call; normalized cell count, %; measured here: cell count, toxicity; reference of the scale not given here;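 cells exposed to compound for 48 h; stained nuclei by imaging scaled within each plate; lower means fewer cells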
# HSV augment primary fold: further read-out of HSV augment, marked with its call; fold increase; compound at 10 µM; measured here: primary screen fold increase 10 uM; tested in PC3 cells;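 GFP signal in the first replicate; 1 = infected wells without compound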
# Active calls of the source: *; i = inactive; ? = inconclusive; . = no result given.
# Start of the listing, in advance:
SMILES,RGS16-Gao HTS,PKD1 kinase inh,GALR2 ag,Insulin prom inh,Insulin prom inh cell count,HSV augment,HSV augment primary fold
O=C(Cn1cnc2c(nnn2Cc2ccccc2)c1=O)NCC1CCCO1 (stereo not given),103,6,-1.2,-50,43,i,0.79
c1coc(-c2nc3ccccc3nc2-c2ccco2)c1,193,-1,-0.4,.,.,i,0.94
Cc1ccc2c(C(=O)CCl)c(C)[nH]c2c1,105,.,.,.,.,i,0.82
N/C(=N\OC(=O)COc1ccc(Br)cc1Cl)c1ccccn1,144,-11,-0.8,-3,72,i,0.95
Cc1ccc(NS(=O)(=O)Cc2ccccc2)nc1,98,-3,.,.,.,i,0.77

# This part in full (from the top)
SMILES,RGS16-Gao HTS,PKD1 kinase inh,GALR2 ag,Insulin prom inh,Insulin prom inh cell count,HSV augment,HSV augment primary fold
O=C(Cn1cnc2c(nnn2Cc2ccccc2)c1=O)NCC1CCCO1 (stereo not given),103,6,-1.2,-50,43,i,0.79
c1coc(-c2nc3ccccc3nc2-c2ccco2)c1,193,-1,-0.4,.,.,i,0.94
Cc1ccc2c(C(=O)CCl)c(C)[nH]c2c1,105,.,.,.,.,i,0.82
N/C(=N\OC(=O)COc1ccc(Br)cc1Cl)c1ccccn1,144,-11,-0.8,-3,72,i,0.95
Cc1ccc(NS(=O)(=O)Cc2ccccc2)nc1,98,-3,.,.,.,i,0.77
O=C(NC1CCCCCCC1)c1ccccc1O,101,-8,-1.2,.,.,i,0.84
CCOc1ccc(CC2CC(=O)NC2=O)cc1 (stereo not given),107,16,-2.0,36,63,i,0.98
CCN1C(=O)NC2=C(C(=O)c3ccccc32)C1c1ccccc1F (stereo not given),101,3,0.1,.,.,i,1
COc1cc(C(=O)N/N=C(\Cc2ncc[nH]2)c2ccccc2)cc(OC)c1OC,102,8,.,.,.,i,0.73
CN(c1cccc(NC(=O)c2ccc(N(C)S(=O)(=O)c3ccccc3)cc2)c1)S(C)(=O)=O,96,2,.,.,.,i,0.85
CCOC(=O)N1CCN(S(=O)(=O)c2ccc3[nH]cc(C(=O)O)c(=O)c3c2)CC1,90,-10,-5.2,15,117,i,0.98
FC(F)(F)c1cccc(N2CCN(c3ccc4nnc(-c5ccccc5)n4n3)CC2)c1,99,-7,-1.1,.,.,i,0.5
CCC(C)NC(=O)C1CCN(S(=O)(=O)c2cccc3cccnc23)CC1 (stereo not given),103,-9,-1.3,.,.,i,0.97
O=C(COC(=O)c1cccnc1)c1ccc(Cl)cc1,98,-14,-2.6,21,152,i,0.98
COc1cc2cc(CN(CCCO)S(=O)(=O)c3ccccc3Cl)c(=O)[nH]c2cc1OC,88,0,-1.2,-54,81,i,1

# Next section, overlapping the part above by three compounds.
SMILES,RGS16-Gao HTS,PKD1 kinase inh,GALR2 ag,Insulin prom inh,Insulin prom inh cell count,HSV augment,HSV augment primary fold
CCC(C)NC(=O)C1CCN(S(=O)(=O)c2cccc3cccnc23)CC1 (stereo not given),103,-9,-1.3,.,.,i,0.97
O=C(COC(=O)c1cccnc1)c1ccc(Cl)cc1,98,-14,-2.6,21,152,i,0.98
COc1cc2cc(CN(CCCO)S(=O)(=O)c3ccccc3Cl)c(=O)[nH]c2cc1OC,88,0,-1.2,-54,81,i,1
CC(C)c1cc(C(=O)Nc2cccc(C(F)(F)F)c2)no1,103,-4,-0.2,23,89,i,0.93
O=C(Cn1nnc2ccccc2c1=O)Nc1cccc(S(=O)(=O)N2CCOCC2)c1,102,0,.,.,.,i,1.1
COc1cc(C(C(=O)NC2CCCCC2)N(C(=O)Cc2c[nH]c3ccccc23)c2ccccc2C)cc(OC)c1OC (stereo not given),101,5,0.9,.,.,i,0.97
Cc1cccc(NC(=O)c2cc(NC(=O)c3ccccc3)ccc2N2CCCCC2)c1,111,1,-1.3,15,96,i,0.74
COc1cccc(-n2c(=O)[nH]cc(C(=O)Nc3ccc4c(c3)OCCO4)c2=O)c1,112,-13,-2.4,.,.,i,0.81
CC(O)CNCc1ccc(-c2ccccc2)cc1 (stereo not given),103,13,-0.3,.,.,i,0.82
CCCCN1C(=O)C(=O)N(c2ccccc2)C1=S,84,-12,-1.2,9,102,i,0.95
Brc1ccc(C2CC(c3ccccc3)=Nc3ccccc3N2)cc1 (stereo not given),46,-11,-0.2,.,.,i,0.99
COc1ccc(CN(C(=O)c2ccc(CN3CCOCC3)o2)C(C(=O)NCC2CCCO2)c2ccc(F)cc2)cc1 (stereo not given),100,-5,.,21,99,i,0.97
CCOC(=O)C1CCN(S(=O)(=O)c2cccc(-c3cn4cc(Cl)ccc4n3)c2)CC1,100,-4,-1.2,-56,136,i,1
Cc1ccc2[nH]c3c(c2c1)CN(C(=O)CN1CC(C)OC(C)C1)CC3 (stereo not given),102,3,-0.4,-343,92,?,.
Cc1ccc(S(=O)(=O)N=S(CC2CC2(Cl)Cl)CC2CC2(Cl)Cl)cc1 (stereo not given),100,12,-2.0,.,.,i,1.2
CCN1CCN(S(=O)(=O)c2ccc(Cl)c(C(=O)NC(C)(C)C)c2)CC1,105,-1,.,7,134,i,1
Cc1cccc(Cc2cnc(N3C(=N)SC(C)C3=O)s2)c1 (stereo not given),94,6,.,38,133,i,0.95
N#CCCCSc1nnc(-c2ccccn2)o1,93,-8,0.0,-41,99,i,0.93
O=C(c1ccc(Cn2cc(Br)cn2)cc1)N1CCN(c2ccccc2)CC1,100,-2,-4.1,18,100,i,0.72
O=C(O)CC1S/C(=N\N=C2CCCCCC2)N(c2ccccc2)C1=O (stereo not given),105,.,.,.,.,i,1.1
COc1cc2c(cc1OC)C(c1cccs1)N(C(=O)c1cccnc1)CC2 (stereo not given),99,-3,.,.,.,i,0.77
NS(=O)(=O)c1ccc(NS(=O)(=O)c2cccs2)cc1,34,-7,-2.6,5,117,i,0.82
COc1ccc(/C=N/n2cnnc2)cc1Br,101,.,.,.,.,i,0.96
CCCCOc1ccc(-c2ncc(Cl)cn2)cc1,103,-12,-1.3,-32,122,i,1
O=C(NC1CCCCC1)C1CCCN1S(=O)(=O)c1cccc2nsnc12 (stereo not given),95,8,-1.0,-52,130,i,0.92
CSc1ccc(/C=C(/NC(=O)c2ccc(C)cc2)C(=O)Nc2cccc(F)c2)cc1,103,-4,-0.5,.,.,.,.
O=C1NCCN/C1=C\C(=O)c1cccc(Br)c1,89,.,.,.,.,i,0.89
CC(C)S(=O)(=O)c1nsc2nc(=O)c(/C=C3\C=Nc4ccccc43)c(N)n12,113,-12,.,-25,86,i,1
O=c1cc(-c2ccccc2)nc(SCc2ccc(Cl)cc2)[nH]1,102,3,-0.8,26,44,i,1
Cc1cc(S(=O)(=O)NCc2ccccc2)ccc1OCC(=O)N1CCOCC1,105,0,.,.,.,i,0.9
CCOc1ccc(-c2c(=O)n(OCc3ccccn3)c3ccccc3[n+]2[O-])cc1,106,3,-1.7,24,49,i,0.76
CCOC(=O)C1(Cc2cccc(OC)c2)CCN(Cc2cccc(O)c2)CC1,103,-5,.,.,.,i,0.94
CCOc1cc(C(=O)OCC(=O)c2c[nH]c3ccccc23)ccc1OCC(=O)N1CCOCC1,100,-1,-2.6,-14,255,i,0.96
O=C(COc1ccc(S(=O)(=O)NCc2ccccc2)cc1Cl)NCC1CCCO1 (stereo not given),100,-5,-0.9,-214,192,i,0.94
COc1c(Cl)cc(Cl)cc1CNCCO,101,-4,.,-18,98,i,1.1
CCNC(=S)N/N=C(\C)c1ccc(N2CCOCC2)cc1,71,-2,-1.4,20,83,i,0.52
CSc1nc(NCCCO)c2c3c(sc2n1)CN(C)CC3,101,.,.,.,.,i,1.2
Cc1nn(C2CCS(=O)(=O)C2)c(Cl)c1/C=C/C(=O)OCC(=O)Nc1ccc2c(c1)OCO2 (stereo not given),104,-6,.,27,124,i,0.91
O=C(c1cccnc1)N1CCc2ccccc2C1,98,-5,-1.3,18,90,i,0.96
CCOc1ccc2[nH]c(=O)c(=O)[nH]c2c1,100,-3,0.9,-39,125,i,0.98
CN1C(=O)c2cccc3c(S(=O)(=O)Nc4ccccn4)ccc1c23,95,-9,-1.0,10,76,i,0.94
Nc1ccc(CCc2nc3ccccc3o2)cc1,101,1,-0.4,.,.,i,1.3
COC(=O)c1cc(C)nc(Sc2ccccc2NC(C)=O)n1,107,.,.,.,.,i,1.2
Cc1cc(C)c(S(=O)(=O)N2CCN(c3ccc([N+](=O)[O-])c(NCc4ccco4)c3)CC2)c(C)c1,103,3,-1.8,.,.,i,0.57
COc1cccc(/C=C/C(=O)OCC(=O)Nc2cccc(S(=O)(=O)N3CCOCC3)c2)c1OC,97,-5,.,.,.,i,1
O=C1NC2(C=Cc3c(ccc4ccccc34)O2)Oc2ccccc21 (stereo not given),69,-10,-3.3,-32,120,i,0.84
CC(=O)c1ccc(Sc2ccccc2)c([N+](=O)[O-])c1,97,.,.,.,.,i,0.95
COc1cc(NS(=O)(=O)c2ccc3[nH]c(=O)oc3c2)cc(OC)c1,105,-5,.,.,.,i,0.91
N#Cc1ccccc1Sc1ccccc1C(=O)N1CCOCC1,101,-7,-1.6,.,.,i,0.98
COC(=O)c1ccc(C(=O)OC)c(NC(=S)N2CCN(c3ccccc3F)CC2)c1,99,-14,1.4,-38,157,i,0.97
CCOc1cccc(/C(O)=C2/C(=O)C(=O)N(Cc3ccco3)C2c2ccncc2)c1 (stereo not given),100,-6,-3.8,-12,102,i,0.99
Cc1ccc(SC(C)C(=O)Nc2cccc(N(C)S(C)(=O)=O)c2)cc1 (stereo not given),95,3,-2.3,36,62,i,0.74
CCc1ccc(OCCCC(=O)Nc2nnc(C3CCCO3)s2)cc1 (stereo not given),61,-3,.,.,.,i,1
CN(CC(=O)Nc1ccncc1)S(=O)(=O)c1ccc(Cl)cc1,117,-6,-1.2,3,111,i,1
CCOC(=O)c1cnc(SCC(=O)c2ccccc2)nc1N,90,2,-0.1,.,.,i,0.94
O=C(O)CN1C(=O)C2(OCCCO2)c2ccccc21,99,0,8.3,-50,69,i,0.93
CC1CCCN(Cc2c(O)ccc3c2O/C(=C\c2ccco2)C3=O)C1 (stereo not given),106,2,-1.1,-21,119,i,1.2
CCOC(=O)N=S(=O)(Oc1ccc([N+](=O)[O-])cc1)c1ccccc1 (stereo not given),152,-6,-0.8,-36,70,i,0.89
O=C(NCc1ccc(Cl)cc1)C(=O)c1c[nH]c2ccccc12,101,-7,.,-26,65,i,0.71
CC(/C=C1\SC(=S)N(CC(=O)N2CCN(c3ccccc3)CC2)C1=O)=C\c1ccccc1,101,-1,-1.1,-17,97,i,0.89
CCCS(=O)(=O)c1c(S(=O)(=O)CCC)c2ccc(C(C)=O)cn2c1C(=O)OC,98,9,.,0,83,i,1.1
Cc1ccc(NC(=O)N(CCCN2CCOCC2)Cc2cccnc2)cc1C,104,-7,-1.5,.,.,i,0.93
CCCCN(C(=O)Cn1nnc2ccccc21)C(C(=O)NCc1ccco1)c1ccncc1 (stereo not given),102,-8,-1.5,.,.,i,0.89
# (list continues)
SMILES,RGS16-Gao HTS,PKD1 kinase inh,GALR2 ag,Insulin prom inh,Insulin prom inh cell count,HSV augment,HSV augment primary fold
CC1CCC2(CC1)NC(=O)N(CC(=O)NC(=O)NC1CCCC1)C2=O (stereo not given),103,-9,0.0,19,85,i,0.94
COCCN(C(=S)Nc1c(C)cccc1C)C(C)c1cccs1 (stereo not given),106,5,.,-85,101,i,0.97
COc1ccc(Cl)cc1S(=O)(=O)Nc1ccncc1,107,0,.,.,.,i,0.94
COC(C(=O)Nc1ccc(S(=O)(=O)Nc2c(C)cccc2C)cc1)c1ccccc1 (stereo not given),106,-9,0.5,38,104,i,0.9
Cc1cc(C(=O)Nc2ccccc2N2CCOCC2)c2ccccc2n1,113,4,-1.0,-53,132,i,0.98
CSc1ccc(CN2CCN(C(C)C)C(CCO)C2)cc1 (stereo not given),101,-6,.,.,.,i,1
CCCC(=O)Nc1cc(OC)c(NC(=O)NC2CCCCC2)cc1OC,100,0,-2.1,.,.,i,0.76
COc1ccc2nc(NC(=O)CSc3nc(SC)ns3)sc2c1,102,-12,-1.1,.,.,i,0.96
COc1ccc(C(=O)NCC(=O)N2CCC(C)CC2)cc1OC,101,0,-2.9,13,131,i,0.98
CC(=O)N1c2ccccc2NC(=O)C1(C)C,103,-3,-2.4,-26,92,i,1.1

# Sorted by value in PKD1 kinase inh (rising): three from the list above.
Molecule | RGS16-Gao HTS | PKD1 kinase inh | GALR2 ag | HSV augment | HSV augment primary fold
CSc1ccc(CN2CCN(C(C)C)C(CCO)C2)cc1 (stereo not given) | 101 | -6 | . | i | 1
COc1ccc(C(=O)NCC(=O)N2CCC(C)CC2)cc1OC | 101 | 0 | -2.9 | i | 0.98
COCCN(C(=S)Nc1c(C)cccc1C)C(C)c1cccs1 (stereo not given) | 106 | 5 | . | i | 0.97
